# Env fusion inh – blocks HIV Env-driven cell-cell fusion; hit rate 1.1% among 360,000; inhibition, % at 12.3 µM; HeLa-JRFL Env/CEM21 cell fusion, luciferase;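 active means mean replicate inhibition score of at least 50 and every replicate individually at or above 50; inconclusive means only one of the two criteria met; inactive means mean below 50 and not all replicates reaching 50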;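 further: 0% = plate neutral controls and 100% = maraviroc near 300 nM; one replicate is shown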
# Rce1 inhib – yeast Ras-converting enzyme inhibition | Q03530 | yeast membranes, quenched prenylated peptide cleavage fluorescence | calls only | hit rate 0.27% among 290,000;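 active means fall in fluorescence gain of 50% or more versus controls, with final raw signal at or below 3038400; inconclusive means same 50% fall but final raw signal above 3038400; inactive means fall in fluorescence gain under 50%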;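 further: plate controls were neutral control wells for no effect and wells lacking membranes for full effect; tested at 10 µM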
# eIF4H inh – inhibitors of RNA binding by human eIF4H; inhibition, % at 35 µM; Q15056; hit rate 0.94% among 290,000; eIF4H fluorescence polarization binding assay;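 active means 50% or more with normal probe brightness, or confirmed in later tests; inconclusive means above 50% with abnormal brightness, or retests that disagree; inactive means below 50% or failed in later tests; about a fifth of its hits are not listed in these tables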;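 further: calls also rest on retests at 20 µM and on dose response follow-up; 0% = protein and probe with vehicle and 100% = probe without protein; strong numbers were not always called active; many hits fall short of the cut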
# Yeast UUG start – modulators of start codon recognition fidelity in yeast; S. cerevisiae UUG-firefly luciferase reporter, luminescence/redox ratio; activity score, % at 18.7 µM; hit rate 0.13% among 350,000; AID 602363;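 active means replicate mean at a twofold rise or more, about +100% in these data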;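 further: firefly luciferase made from a UUG start codon reports start codon fidelity; reporter light over untreated wells divided by growth signal over untreated wells; some hits fall short of that in this replicate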
# CSC inhib – cancer stem cell inhibition | inhibition, % at 7.5 µM | AID 2717 | cancer stem cell-like cells viability, luminescence | hit rate 1.1% among 300,000;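 active means mean at 75% or more and at least half the replicates too; inconclusive means mean and replicates disagree; tested in HMLE shEcad cells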;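 further: 0% = median of negative and 100% = median of positive control wells; the first replicate is given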
# PABP polyA inh – blocks human PABP binding to poly(A) RNA | fluorescence polarization | P11940 | inhibition, % at 35 µM | hit rate 1% among 290,000;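 active means 50% or more with normal probe brightness, or confirmed in later tests; inconclusive means above 50% with abnormal brightness, or retests that disagree; inactive means below 50% or failed in later tests; about a fifth of its hits are not listed in these tables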;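 further: calls also rest on retests at 20 µM and on dose response follow-up; controls were probe without protein and protein plus probe with vehicle; some compounds called inactive have numbers as strong as hits; many hits fall short of the cut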
# Target sequence (P11940 whole entry, looked up): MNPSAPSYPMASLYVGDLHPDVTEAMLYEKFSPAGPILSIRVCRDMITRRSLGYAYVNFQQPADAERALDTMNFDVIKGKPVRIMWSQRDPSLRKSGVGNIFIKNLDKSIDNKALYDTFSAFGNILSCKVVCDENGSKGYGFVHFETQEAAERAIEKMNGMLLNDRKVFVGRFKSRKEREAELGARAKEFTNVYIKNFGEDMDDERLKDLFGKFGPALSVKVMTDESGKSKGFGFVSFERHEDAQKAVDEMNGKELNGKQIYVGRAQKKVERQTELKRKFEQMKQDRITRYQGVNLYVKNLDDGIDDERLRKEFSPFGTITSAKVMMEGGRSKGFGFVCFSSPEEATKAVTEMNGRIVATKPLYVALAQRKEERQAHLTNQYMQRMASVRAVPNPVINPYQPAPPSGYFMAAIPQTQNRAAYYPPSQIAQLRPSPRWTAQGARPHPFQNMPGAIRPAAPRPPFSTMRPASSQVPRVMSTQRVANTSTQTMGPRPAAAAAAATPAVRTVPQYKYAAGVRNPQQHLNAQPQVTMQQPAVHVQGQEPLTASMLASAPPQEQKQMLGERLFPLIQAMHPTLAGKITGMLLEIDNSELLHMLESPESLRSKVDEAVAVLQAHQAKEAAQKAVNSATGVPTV
# MT1-MMP act inh – blocks activation of human MT1-MMP; hit rate 0.061% among 360,000; GFP/RFP ratio change, % at 20 µM; P50281; HT1080 RFP-PRO-GFP cells, GFP/RFP ratio fluorescence, overnight; percent of plate control window, DMSO zero;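 active means GFP/RFP ratio change of at least 30% with cell ATP level not reduced by more than half and red fluorescence within 50% of control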; further: strong numbers were not always called active
#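 Material – HT1080 RFP-PRO-GFP cells · Control set – DMSO wells and RFP-L50D-GFP cells · Incubation – overnight cell settling, then overnight compound exposure, 37 °C, 5% CO2 · Compound dosing – single-point 20 µM compound, 1% DMSO · Read-out – GFP/RFP fluorescence ratio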
# eIF4H inh retest – further read-out of eIF4H inh, marked with its call; inhibition, %; compound at 20 µM; confirmation average;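 mean of two retest wells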
# PABP polyA inh retest – second read-out of PABP polyA inh, no call of its own (marks repeat the call); inhibition, %; compound at 20 µM; confirmation repeats;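 mean of two retest wells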
# MT1-MMP act inh RFP – further read-out of MT1-MMP act inh, marked with its call; RFP signal change, %; measured here: RFP expression control read;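 0 = vehicle wells; hits needed this value within 50% of zero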
# * = called active by the depositor; i = inactive; ? = inconclusive; . = no result given. A portion of the library; the hit share may differ from the screen's.
SMILES,Env fusion inh,Rce1 inhib,eIF4H inh,Yeast UUG start,CSC inhib,PABP polyA inh,MT1-MMP act inh,MT1-MMP act inh RFP,others
CN(C)c1cccc(C(=O)OC(C(=O)Nc2ccc([N+](=O)[O-])cc2Br)c2ccccc2)c1 (configuration not stated),.,i,-2,.,-12,-10,3,-1,
Cc1cccc(NC(=O)CN(C)S(=O)(=O)c2ccccc2)n1,.,i,-4,-13,-11,-5,0,2,
CCn1c(=N)n(CC(=O)c2cccc([N+](=O)[O-])c2)c2ccccc21,-98,i,-7,.,-7,4,-1,-6,
Cc1ccc(S(=O)(=O)NCCC(=O)Oc2ccc3ccc(=O)oc3c2)cc1,-6,i,5,0,-5,-2,1,1,
CC(=O)OC[C@@H]1CN(Cc2ccccc2)C[C@H](n2cnc3c(N(C)C(C)C)ncnc32)O1,-21,.,.,1,.,.,1,3,
CN(C)c1nn2c(-c3ccccc3)nnc2o1,-69,.,.,-1,.,.,9,6,
ClC1(Cl)CC1CSc1nc2ccccc2[nH]1 (configuration not stated),2,i,-12,.,7,-11,-2,1,
CCOC(=O)N1CCN(C(=O)COC(=O)CSc2cc(C)c(Br)cc2C)CC1,-25,i,.,.,-4,.,4,8,
Cc1ccc(C(=O)Oc2ccc3c(c2)ncn3C)cc1,.,i,-1,-5,3,5,3,-3,
Cc1csc(C2=C(O)CN(CCc3ccccc3)C2=N)n1,.,i,1,.,-23,6,1,5,
Cc1ccc2c(=O)n3c(nc2c1)C(Cc1ccc(O)cc1)NC(=O)c1cc2ccccc2cc1-3 (configuration not stated),-27,.,.,-13,.,.,-12,-21,
Nc1nc(-c2ccc(Br)s2)c(Br)s1,-67,i,-10,-19,1,20,4,3,
CC(=O)c1sc(NC(=O)CCS(=O)(=O)c2ccccc2)nc1C,0,i,-5,-3,-9,-6,.,.,
CCOc1c2ccc(C(=O)NCc3cc(C(F)(F)F)cc(C(F)(F)F)c3)cc2nn1C,-20,i,-12,-7,39,-6,8,3,
CC(C)N(C(=O)CSc1nn2c(=O)c(C(C)(C)C)nnc2s1)c1ccccc1,.,i,12,9,.,-2,-3,-9,

# Arranged by molecular weight (ascending): six of the compounds above
SMILES,Env fusion inh,Rce1 inhib,eIF4H inh,Yeast UUG start,CSC inhib,PABP polyA inh,MT1-MMP act inh,MT1-MMP act inh RFP,others
Cc1ccc(C(=O)Oc2ccc3c(c2)ncn3C)cc1,.,i,-1,-5,3,5,3,-3,
ClC1(Cl)CC1CSc1nc2ccccc2[nH]1 (configuration not stated),2,i,-12,.,7,-11,-2,1,
Nc1nc(-c2ccc(Br)s2)c(Br)s1,-67,i,-10,-19,1,20,4,3,
Cc1ccc(S(=O)(=O)NCCC(=O)Oc2ccc3ccc(=O)oc3c2)cc1,-6,i,5,0,-5,-2,1,1,
CCOc1c2ccc(C(=O)NCc3cc(C(F)(F)F)cc(C(F)(F)F)c3)cc2nn1C,-20,i,-12,-7,39,-6,8,3,
CN(C)c1cccc(C(=O)OC(C(=O)Nc2ccc([N+](=O)[O-])cc2Br)c2ccccc2)c1 (configuration not stated),.,i,-2,.,-12,-10,3,-1,

# Continued:
SMILES,Env fusion inh,Rce1 inhib,eIF4H inh,Yeast UUG start,CSC inhib,PABP polyA inh,MT1-MMP act inh,MT1-MMP act inh RFP,others
CCOc1cc(/C=C/C(=O)OCC(=O)N(CC)C2CCS(=O)(=O)C2)cc(Cl)c1OC (configuration not stated),7,.,.,18,.,.,-1,4,
CC(=O)Nc1ccc(Oc2ccc(S(=O)(=O)N3CCCC3)cn2)cc1,.,.,.,17,-9,.,1,3,
Cc1nnc(SCc2nnc(-c3ccccc3Br)o2)s1,-2,i,-6,.,-14,-4,-1,2,
C=C(C)C(=O)Nc1cccc(C2=NOC3(C2)C[C@H](C(N)=O)N(C(=O)C(c2ccccc2)c2ccccc2)C3)c1 (some centres not stated),.,.,96,14,-8,39,4,3,eIF4H inh retest=41;PABP polyA inh retest=13
O=C(NN1C(=O)C2C3C=CC(C3)[C@H]2C1=O)c1cccnc1 (some centres not stated),.,i,1,.,0,-6,-1,4,
COCCN(CC1CCCN(C2Cc3ccccc3C2)C1)C(=O)c1cccs1 (configuration not stated),-16,i,-1,-8,2,2,0,5,
CCc1cccc(C)c1NC(=O)C1CC(=O)N(C2CCCC2)C1 (configuration not stated),.,.,.,-16,7,.,-2,0,
Cc1nc2nc(CCNS(=O)(=O)c3ccc(Cl)cc3)cn2nc1C,4,i,-5,-1,-3,-7,-3,3,
CCc1c(O)nc(SCC(=O)NC(C)(C)C)n(-c2ccccc2)c1=O,-50,i,0,11,1,-9,3,7,
CCOc1ccc(N2CC(C(=O)Nc3cccc(S(=O)(=O)N4CCCCC4)c3)CC2=O)cc1 (configuration not stated),-4,i,-7,.,-12,3,4,-7,
Cc1cc(NCc2ccccc2Cl)n2nnnc2n1,.,i,5,-17,-17,12,1,-1,
CCCCNC(=O)C1(C)CCCCN1Cc1ccc(-c2ccccc2)cc1 (configuration not stated),40,.,.,-4,.,.,-1,-6,
Cn1c(C(=O)N2CCN(Cc3ccccc3)CC2)cc2c(=O)n(C)c3ccccc3c21,-8,i,5,-1,-26,14,4,2,
COc1ccc(NC(=S)N2CCN(C(c3ccccc3)c3ccccc3)CC2)c(OC)c1,0,i,-2,.,-7,-4,-20,-17,
CCNC(=O)COc1cc(C)c(Br)c(C)c1,-26,i,1,-13,5,?,-1,2,
Cc1nn(C)c(Oc2ccc(Cl)cc2)c1C=O,11,i,3,-20,-12,-1,-5,-1,
CN1C(=O)/C(=C/C=C2\SCCN2C)N(C)C1=S,-83,i,?,-13,.,-1,26,-3,
Cc1ccc2c(c1)c1nnc(SCC(=O)Nc3cccc(Cl)c3C)nc1n2CC(=O)O,4,.,16,.,-12,-2,0,-2,
CCC(=O)N(Cc1cc2c(C)cc(C)cc2[nH]c1=O)C1CCCCC1,.,i,1,7,-6,-1,-1,3,
COc1ccc2cc[nH]c2c1,-14,i,0,-16,-19,-5,1,6,
CCCSc1ccc([C@@H]2[C@@H]3C(=O)N(CC)C(=O)[C@@H]3[C@]3(C(=O)OC)CCCCN23)cc1,24,.,.,3,.,.,4,-8,
COc1ccc(-n2c(C(C)(C)C)csc2=Nc2c(C)n(C)n(-c3ccccc3)c2=O)cc1,-3,i,1,.,-15,-3,4,3,
CN1CCN(NC(=O)/C=C/c2cccc([N+](=O)[O-])c2)CC1,-7,i,-6,-15,-4,-4,8,2,
CCOC(=O)c1cnc2oc3ccccc3n2c1=O,5,i,17,-31,4,15,-2,3,
CCCS(=O)(=O)NC(=O)C1(C)CCCN(C(=O)c2ccccc2Br)C1 (configuration not stated),-7,.,.,-45,.,.,2,8,
Cc1ccsc1C(C(=O)NCc1ccccc1)N(C(=O)c1csnn1)c1ccccc1 (configuration not stated),2,i,-4,-12,7,-2,-1,-1,
Clc1ccc(Nc2nc(NCCN3CCOCC3)nc(N3CCOCC3)n2)cc1,.,i,-1,-18,6,4,-6,-5,
CCOc1cc(N2CCOCC2)c(OCC)cc1NC(=O)CN1CCN(Cc2ccc3c(c2)OCO3)CC1,7,i,0,.,14,-12,-1,1,
Cc1cc2c(cc1S(=O)(=O)Nc1cccc(C)c1C)n(C)c(=O)c(=O)n2C,4,i,-4,-4,.,-14,-2,-3,
CC(C)C(NC(=O)c1ccc(Br)cc1)C(=O)NC1=NCCS1 (configuration not stated),21,i,23,.,0,48,2,3,
CC1CCN(c2nc3c(c(=O)[nH]c(=O)n3C)n2Cc2ccccc2Cl)CC1,i,i,-3,-23,.,3,-6,-6,
COc1cccc(OCc2nn[nH]n2)c1,2,i,-4,-10,-9,1,1,3,
Cc1cn([C@H]2C[C@H](O)[C@@H](CNC(=O)[C@H](N)Cc3cn(COCc4ccccc4)cn3)O2)c(=O)[nH]c1=O,13,.,.,-10,.,.,3,6,
Cc1ccc(S(=O)(=O)NCC(=O)OCc2csc(-c3ccccc3)n2)cc1,-21,i,-7,3,1,-6,8,3,
Cc1cc(C)nc(-n2ncc3c2CC(C)CC3=O)n1 (configuration not stated),12,i,2,-26,25,-15,3,0,
NC(=O)C1CCN(CC(=O)Nc2cc(Cl)ccc2Oc2ccccc2)CC1,8,i,10,.,-4,-10,3,3,
Cc1cc(=O)[nH]c(=S)[nH]1,-19,i,2,-12,-15,-8,3,1,
COC(=O)C1=C(C)N(CCCC(=O)O)C(=O)NC1c1cccc(OC)c1 (configuration not stated),-3,i,.,-4,-1,.,1,6,
CCn1c(CCCNC(=O)c2cccs2)nc2ccccc21,.,i,-12,-22,-7,0,-2,2,
O=C1CCn2nc(-c3ccc(Cl)cc3)cc2N1,-120,i,1,-6,2,-25,-2,-1,
N#CCC(=O)Nc1ccc(C(=O)OCC(=O)NC(=O)NCc2ccco2)cc1,-1,.,.,-26,-4,.,-8,8,
COc1ccc(/C=N/n2c(COc3ccccc3)n[nH]c2=S)cc1OC,46,i,2,-16,.,1,4,7,
Cc1cccc(Nc2nnc(SCC(=O)Nc3ncc(C(F)(F)F)cc3Cl)s2)c1C,-2,i,-1,6,-6,-7,0,2,
Oc1[nH]c2ccccc2c1OCc1ccncc1,.,i,-1,-11,-4,2,-2,2,
COC(=O)c1ccc(C)c(NC(=O)c2ccc(CN3CCc4ccccc4C3)cc2)c1,9,i,-13,6,4,3,1,-13,
O=C(NC1CCCC1)C(c1ccncc1)N(Cc1ccccc1)C(=O)Cc1cccs1 (configuration not stated),.,i,2,-21,-11,-8,-2,2,
Cc1ccc(S(=O)(=O)Nc2c(C)ccc3nsnc23)cc1,-20,i,-1,-20,-14,-8,-5,-10,
COc1ccc(C(=O)N2CCN(c3ccccc3)CC2)cc1S(=O)(=O)NC1CC1,-5,.,.,8,.,.,0,6,
COc1ccc(Cl)cc1N(CC(=O)NC1CC2CCC1C2)S(=O)(=O)c1ccccc1 (configuration not stated),14,i,-7,-4,22,-2,0,-1,
COc1cccc2cc(C(C)N(CCCN3CCOCC3)C(=S)Nc3ccc(C)cc3)oc12 (configuration not stated),6,i,-6,-18,-15,-5,4,1,
COc1ccc(C(=O)OCC(=O)c2cc(C)n(CC3CCCO3)c2C)cc1[N+](=O)[O-] (configuration not stated),23,.,.,-5,38,.,5,-13,
O=C(O)c1c(F)c(F)cc2ccccc12,.,i,9,-15,2,-1,-2,3,
N#Cc1ccc(OCC(=O)Nc2cc(S(=O)(=O)N3CCOCC3)ccc2N2CCOCC2)cc1,-15,i,-1,-1,-15,-2,3,0,
COc1ccc(N(C(=O)c2ccncc2)S(=O)(=O)c2ccccc2)cc1,-14,i,-7,-10,-7,-3,-2,1,
O=c1c2ccccc2nc2sc(Nc3ccc(F)cc3)nn12,-132,.,.,-24,-9,.,5,4,

# Already shown: an excerpt of the list.
SMILES,Env fusion inh,Rce1 inhib,eIF4H inh,Yeast UUG start,CSC inhib,PABP polyA inh,MT1-MMP act inh,MT1-MMP act inh RFP,others
COc1ccc(N(C(=O)c2ccncc2)S(=O)(=O)c2ccccc2)cc1,-14,i,-7,-10,-7,-3,-2,1,
O=c1c2ccccc2nc2sc(Nc3ccc(F)cc3)nn12,-132,.,.,-24,-9,.,5,4,

# Screening data: PubChem, several laboratories
